Source: PubChem BioAssay (National Center for Advancing Translational Sciences (NCATS))
MARV entry inh – qHTS for inhibitors of binding or entry into cells for Marburg Virus; Marburg virus pseudotyped entry inhibition, cell reporter; control for the full effect not named in the record; about a third of the inactives were read at about 46 µM; Potency, µM (series often up to 37.8 µM), for inactives: at the highest dose activity change, negative = inhibition, hits mostly inhibitors; actives 1.8% (n = 300,000); active = well fitted inhibition curve with a large enough effect; inconclusive = small, poorly fitted or top-dose-only effect, or effect the other way; inactive = flat fitted curve, though single readings scatter; tested in HEK293 cells; about a fifth of its hits are not listed in these tables; note: % is set by controls: 0 for no effect and ±100 for the full control effect; luciferase read-out
Lassa entry inh – qHTS for Inhibitors of binding or entry into cells for Lassa Virus; Lassa virus pseudotype entry inhibition, cell reporter; control for the full effect not named in the record; Potency, µM (doses to about 37.9 µM), for inactives: top-dose activity change, negative = inhibition, usual class: inhibitors; actives 1.2% (n = 300,000); AID 540256, 2011; active means well fitted inhibition curve with a large enough effect; inconclusive means small, poorly fitted or top-dose-only effect, or effect the other way; inactive means flat fitted curve, though single readings scatter; tested in HEK293 cells; note: % is set by controls: 0 for no effect and ±100 for the full control effect; nearly all actives have a fitted effect of over 50% in size; luciferase read-out
Cruzain noTriton – qHTS Assay for Promiscuous and Specific Inhibitors of Cruzain (without detergent) | Potency, µM, inactives show max response, negative = inhibition, most hits filed as inhibitors | Cruzipain (Trypanosoma cruzi), P25779 | AID 1476, 2009 | purified cruzain, Z-FR-AMC fluorescence, no detergent | actives 2.3% (n = 200,000);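 note: plate controls were enzyme without inhibitor for no effect and buffer without enzyme for full effect; nearly all actives have a fitted effect of over 40% in size; top concentration of the series not given in the record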
Target sequence (P25779 123-467 limits assumed): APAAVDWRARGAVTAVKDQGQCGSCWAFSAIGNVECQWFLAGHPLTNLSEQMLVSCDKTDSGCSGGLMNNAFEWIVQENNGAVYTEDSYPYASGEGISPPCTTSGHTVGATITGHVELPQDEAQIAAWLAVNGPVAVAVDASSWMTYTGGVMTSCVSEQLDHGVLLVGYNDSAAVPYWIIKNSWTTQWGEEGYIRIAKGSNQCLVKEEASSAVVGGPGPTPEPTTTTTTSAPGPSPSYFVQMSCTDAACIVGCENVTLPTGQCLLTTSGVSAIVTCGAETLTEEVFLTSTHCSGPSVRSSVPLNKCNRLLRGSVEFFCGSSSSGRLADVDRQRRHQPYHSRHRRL
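Detergent-free condition (0.00005% Triton X-100) in acetate buffer pH 5.5 with DTT. 1.5 nM enzyme and compound were pre-mixed 15 min, then 2 uM Z-FR-AMC substrate added; reaction progress from fluorescence change between first and third reads (60 s).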
RE007 growth inh – qHTS Assay for Inhibitors of the HIV-1 protein Vpr | S. pombe RE007 Vpr strain, BacTiter-Glo ATP luminescence, 24 h; control for the full effect not named in the record | Potency, µM (titrated, usually from 92.2 µM), without a hit: at the highest dose activity change, negative = less growth | actives 0.21% (n = 360,000); active = well fitted falling curve with a large enough effect; inconclusive = small, poorly fitted or top-dose-only effect; inactive = no such curve, though single readings can be large or run the other way;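 note: % is set by controls: 0 for no effect and ±100 for the full control effect; nearly all actives have a fitted effect of over 50% in size; the assay follows cell death caused by Vpr and the record does not say whether a fall means rescue or toxicity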
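Fission yeast RE007 carrying one integrated HIV-1 vpr copy, seeded at OD 0.01 in PMG+AL medium with 23 nL pinned compound. Grown 24 h at 30 degrees; viability read by BacTiter-Glo luminescence after 5 min.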
NS1 function inh – qHTS Assay for Inhibitors of Influenza NS1 Protein Function; actives 0.4% (n = 270,000); Potency, µM (titrated, usually from 46.1 µM), for inactives: top-dose activity, positive = more growth; AID 2326, 2010; S. cerevisiae slowed by influenza A NS1, growth recovery by OD600; active means well fitted rising curve with a large enough effect; inconclusive means small, poorly fitted or top-dose-only effect; inactive means no such curve, though single readings can be large or run the other way; note: nearly all actives have a fitted effect of over 50% in size
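OD600 was taken as the measure of yeast growth restored by compound in an NS1-expressing S. cerevisiae strain. Cells had been washed out of glucose medium and diluted 1:100 into galactose -URA medium, pH 6.0.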
Cruzain Triton – qHTS Assay for Promiscuous and Specific Inhibitors of Cruzain (with detergent). Cruzipain (Trypanosoma cruzi), P25779. purified cruzain, Z-FR-AMC fluorescence, 0.01% Triton. actives 0.43% (n = 200,000). Potency, µM, inactives show max response, negative = inhibition, hits mostly inhibitors;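 note: plate controls were neutral wells for no effect and buffer without enzyme for full effect; nearly all actives have a fitted effect of over 40% in size; top concentration of the series not given in the record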
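Purified cruzain (1.5 nM final) was preincubated with compounds for 15 min at room temperature in 100 mM sodium acetate pH 5.5, 5 mM DTT, 0.01% Triton X-100. Reaction started with 2 uM Z-FR-AMC; AMC fluorescence change over 60 s gave activity.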
SARS PLpro yeast – qHTS of Yeast-based Assay for SARS-CoV PLP | S. cerevisiae expressing SARS-CoV PLpro, growth rescue; control for the full effect not named in the record | Potency, µM (titrated, usually from 32.9 µM), for inactives: at the top dose activity, positive = growth rescue | actives 0.19% (n = 330,000); active means well fitted rising curve with a large enough effect; inconclusive means small, poorly fitted or top-dose-only effect; inactive means no such curve, though single readings can be large or run the other way; note: 0% is about no effect; nearly all actives have a fitted effect of over 55% in size; growth read by luminescence after 48 h
2A StopGo – High Throughput Screening for Foot and Mouth Disease Virus Antivirals; human cells with a luciferase reporter of 2A StopGo recoding; control for the full effect not named in the record; Potency, µM (doses to about 57.9 µM), for inactives: at the highest dose signal change, negative = less light; actives 1.2% (n = 410,000); AID 1159524, 2015; active = well fitted falling curve with a large enough effect; inconclusive = small, poorly fitted or top-dose-only effect; inactive = no such curve, though single readings can be large or run the other way; tested in HEK293T cells; note: % is set by controls: 0 for no effect and ±100 for the full control effect; nearly all actives have a fitted effect of over 45% in size; luciferase light after 4 h
Numbers without * were called inactive; [ ] = dose if it differs, or a comment. Unless noted, calls come from the whole dose curve; as a rule, active = well fitted curve in the direction sought with a large enough effect; inconclusive = small, poorly fitted or top-dose-only effect, or another doubt; inactive = no such curve, though single readings can be large; an effect the other way counts as inactive or inconclusive. Potency is the fitted concentration of half-maximal effect.

For Cc1ccccc1C(=O)NCCc1csc(-c2ccc(C(F)(F)F)cc2)n1 the results were Lassa entry inh 20.3%[46.1 µM], Cruzain noTriton inconclusive, Cruzain Triton -3.0% and 2A StopGo inconclusive.
For CCOC(=O)C1=C(CS(=O)(=O)c2ccccc2)NC(=O)NC1c1ccccc1 (centres undefined) the results were MARV entry inh -9.5%, Lassa entry inh -8.8%, Cruzain noTriton -5.8%, RE007 growth inh -7.6%, NS1 function inh -3.3%, Cruzain Triton 1.3%, SARS PLpro yeast -6.3% and 2A StopGo -6.5%.
`CC1(C)Cc2nc(N3CCCC3)c(C#N)cc2CO1` gave MARV entry inh 5.9%[46.1 µM], Lassa entry inh 16.3%, RE007 growth inh 1.5%, SARS PLpro yeast 0.1% and 2A StopGo -14.0%.
Screening Cc1ccc(N/C=C(\C2OC(=O)c3ccccc32)[N+](=O)[O-])c(C)c1 (centres undefined) returned MARV entry inh inconclusive, Lassa entry inh -22.3%, RE007 growth inh -9.6%, NS1 function inh -8.8%, SARS PLpro yeast -11.8% and 2A StopGo -17.2%.
Screening O=C(Cc1ccccc1)N1CCN(Cc2c[nH]c3ccccc23)CC1 returned MARV entry inh 14.9%, Lassa entry inh -21.5%, Cruzain noTriton -1.4%, RE007 growth inh 9.5%, NS1 function inh 0.4%, Cruzain Triton -1.9%, SARS PLpro yeast 2.3% and 2A StopGo -6.4%.
Screening O=C(CN1C(=O)CCSc2ccccc21)Nc1ccc(F)cc1 returned MARV entry inh -16.1%, Lassa entry inh -22.1%, Cruzain noTriton 4.1%, RE007 growth inh 0.4%, NS1 function inh 3.1%, Cruzain Triton 3.2%, SARS PLpro yeast 4.5% and 2A StopGo -10.3%.
Screening COc1ccc(C)cc1NC(=O)CN1CCN(S(=O)(=O)c2ccc3ccccc3c2)CC1 returned MARV entry inh -14.3%, Lassa entry inh -17.7%, RE007 growth inh inconclusive, SARS PLpro yeast -5.1% and 2A StopGo -17.9%.
`O=C(Cc1ccc(S(=O)(=O)N2CCOCC2)s1)Nc1ccccc1N1CCCC1` gave MARV entry inh inconclusive, Lassa entry inh -17.0%, RE007 growth inh -12.0%, NS1 function inh 5.5%, SARS PLpro yeast 3.5% and 2A StopGo inconclusive.
For CCN(C(=O)CN1C(=O)CN(C)C1=O)c1cccc2ccccc12 the results were MARV entry inh 8.6%[46.1 µM], Lassa entry inh -21.8%[46.1 µM], RE007 growth inh -12.1%, SARS PLpro yeast -5.8% and 2A StopGo -24.3%.
Screening CCOC(=O)c1cn(CC)c2c(ccc3ccccc32)c1=O returned MARV entry inh 0.0%, Lassa entry inh 10.1%, RE007 growth inh -19.4%, NS1 function inh -14.2%, SARS PLpro yeast 3.1% and 2A StopGo 35.9%[activator].
Screening S=c1[nH]cnc2scc(-c3ccc(Cl)cc3)c12 returned MARV entry inh -15.3%[14.2 µM], Lassa entry inh -24.5%, RE007 growth inh -3.9%, NS1 function inh 7.5%, SARS PLpro yeast 1.5% and 2A StopGo inconclusive.
`O=C(C1=NNCC1c1ccc(Cl)cc1)C1CO1` (centres undefined) gave MARV entry inh inconclusive, Lassa entry inh inconclusive, Cruzain noTriton 3.1%, RE007 growth inh 8.7%, NS1 function inh 2.8%, Cruzain Triton -6.2%, SARS PLpro yeast -2.5% and 2A StopGo -28.3%.
`CC(NC(=O)CNC(=O)c1ccco1)c1ccccc1` (centres undefined) gave MARV entry inh 4.9%[46.1 µM], Lassa entry inh 0.9%, RE007 growth inh 7.5%, NS1 function inh -12.8%, SARS PLpro yeast -3.8% and 2A StopGo -1.0%.
For CCOc1ccc(CNC(=O)Cn2ncc3c(=O)oc4ccc(C)cc4c32)cc1 the results were MARV entry inh 13.7%[46.1 µM], Lassa entry inh -1.6%[46.1 µM], Cruzain noTriton -7.1%, Cruzain Triton -0.3% and 2A StopGo -7.8%.
C=CCOc1ccc(/C=C/C(=O)OCC(=O)N(C)C2CCS(=O)(=O)C2)cc1 (centres undefined) was read as MARV entry inh -3.0%, Lassa entry inh inconclusive, RE007 growth inh 1.0%, NS1 function inh 11.3%, SARS PLpro yeast -4.7% and 2A StopGo -20.2%.
Screening CN(c1ncc(C(F)(F)F)cc1Cl)N1C(=O)c2cccc(N)c2C1=O returned MARV entry inh 7.3%[46.1 µM], Lassa entry inh -11.4%[46.1 µM], RE007 growth inh 4.7%, NS1 function inh 6.4%, SARS PLpro yeast -0.7% and 2A StopGo -12.1%.
`CC(C)n1nnnc1CN1CCN(C)CC1` gave MARV entry inh 10.9%[46.1 µM], Lassa entry inh 6.9%, Cruzain noTriton -4.3%, RE007 growth inh -15.1%, NS1 function inh -17.8%, Cruzain Triton 3.5%, SARS PLpro yeast -0.2% and 2A StopGo -15.3%.
CC(C)(C)c1ccc(OCC(=O)NCc2ccco2)cc1 was read as MARV entry inh 11.0%, Lassa entry inh -3.7%, Cruzain noTriton -3.1%, RE007 growth inh -24.8%, NS1 function inh -5.8%, Cruzain Triton -1.4%, SARS PLpro yeast -8.7% and 2A StopGo 11.1%.
Cc1cc(C(=O)O)c(S(C)(=O)=O)s1 was read as MARV entry inh 15.8%, Lassa entry inh -1.7%, Cruzain noTriton -6.7%, RE007 growth inh 6.2%, NS1 function inh inconclusive, Cruzain Triton 4.0%, SARS PLpro yeast -1.5% and 2A StopGo 11.4%.
`NC(=O)c1ccc(CN2CCC(Cc3ccccc3)CC2)cc1` gave MARV entry inh inconclusive, Lassa entry inh 22.3%[46.1 µM], RE007 growth inh -5.4%, NS1 function inh -5.5%, SARS PLpro yeast 10.6% and 2A StopGo 19.7%.
Screening CCCOC(=O)c1ccc(Nc2nc(C)cc(=O)[nH]2)cc1 returned MARV entry inh -15.9%, Lassa entry inh -11.8%, Cruzain noTriton -7.0%, RE007 growth inh -3.3%, NS1 function inh -6.1%, Cruzain Triton -4.7%, SARS PLpro yeast inconclusive and 2A StopGo -15.5%.
c1ccc(Nc2c(-c3ccco3)nc3ccccn23)cc1 was read as MARV entry inh inconclusive, Lassa entry inh 2.8%, Cruzain noTriton 3.3%, RE007 growth inh -18.5%, NS1 function inh -12.6%, Cruzain Triton -5.9%, SARS PLpro yeast -13.6% and 2A StopGo -23.9%.
O=S(=O)(Nc1ccc(N2CCOCC2)cc1)c1cc(Cl)ccc1Cl was read as MARV entry inh -17.3%[46.1 µM], Lassa entry inh inconclusive, RE007 growth inh 0.6%, NS1 function inh -4.2%, SARS PLpro yeast -0.7% and 2A StopGo 37.2%[activator].
For COC(=O)c1cc(S(=O)(=O)N2CCCCCC2)cn1C the results were RE007 growth inh -5.0%, NS1 function inh -2.0%, SARS PLpro yeast -3.6% and 2A StopGo 7.7%.
Cn1c(=O)c2c(nc(CN3CCCCC3)n2Cc2c(F)cccc2Cl)n(C)c1=O was read as RE007 growth inh -5.8%, NS1 function inh -7.1%, SARS PLpro yeast 1.7% and 2A StopGo -21.5%.
Clc1ccc(-c2nc(N3CCOCC3)nc3ccccc23)cc1 was read as MARV entry inh 5.5%, Lassa entry inh 2.4%, RE007 growth inh -17.8%, NS1 function inh -0.4%, SARS PLpro yeast 3.9% and 2A StopGo -19.1%.
Screening CN(/C(=N/S(=O)(=O)c1cccs1)c1ccccc1)c1ccc(O)cc1 returned MARV entry inh 0.8%, Lassa entry inh inconclusive, RE007 growth inh 1.0%, SARS PLpro yeast 0.8% and 2A StopGo 9.2%.
Cc1cc(C)nc(SCc2ccc(Br)cc2)n1 was read as MARV entry inh 10.8%[46.1 µM], Lassa entry inh 29.7%[46.1 µM], RE007 growth inh -11.0%, NS1 function inh -42.3%, SARS PLpro yeast 8.9% and 2A StopGo inconclusive.
`COC(=O)c1ccc(Cl)cc1NC(=O)NC(C)c1c(-n2cccc2)sc(C)c1C` (centres undefined) gave MARV entry inh -20.6%[46.1 µM], Cruzain noTriton inconclusive, Cruzain Triton -2.2% and 2A StopGo -28.4%.
`O=C(Nc1nc2ccccc2s1)NC1CCCCC1` gave RE007 growth inh -8.3%, NS1 function inh -5.6%, SARS PLpro yeast -1.5% and 2A StopGo 20.9%.
Screening CCOC(=O)N1CCC(N(CCN(C)C)C(=S)Nc2cccc(SC)c2)CC1 returned MARV entry inh -13.8%, Lassa entry inh inconclusive, RE007 growth inh 9.6%, SARS PLpro yeast -0.6% and 2A StopGo 0.1%.
`CSC1=NC(C)(C)CC2(C)Nc3ccccc3N12` (centres undefined) gave MARV entry inh -7.5%, Lassa entry inh 12.7%, Cruzain noTriton -5.1%, RE007 growth inh -12.1%, NS1 function inh 3.8%, Cruzain Triton 1.1%, SARS PLpro yeast -1.1% and 2A StopGo 0.0%.
`CCOC(=O)c1sc(NC(=O)Nc2cccc(Cl)c2)cc1C` gave MARV entry inh inconclusive, Lassa entry inh inconclusive, Cruzain noTriton inconclusive, RE007 growth inh -12.6%, NS1 function inh -35.7%, Cruzain Triton -3.7%, SARS PLpro yeast -15.4% and 2A StopGo -21.5%.
Screening Cc1cc(OCC(O)CN2CCN(c3ccccn3)CC2)cc(C)c1Cl (centres undefined) returned MARV entry inh -18.8%, Lassa entry inh 2.8%, RE007 growth inh 1.5%, NS1 function inh 0.6%, SARS PLpro yeast -2.0% and 2A StopGo inconclusive.
Screening CC1CC(C)CN(C(=O)c2ccc3nc[nH]c3c2)C1 (centres undefined) returned MARV entry inh 3.4%[46.1 µM], Lassa entry inh 10.7%[46.1 µM], RE007 growth inh -0.2%, NS1 function inh 6.0%, SARS PLpro yeast 1.7% and 2A StopGo -20.2%.
`COc1ccc(C=O)cc1` gave Cruzain noTriton 5.5%, RE007 growth inh 9.4%, Cruzain Triton 7.7%, SARS PLpro yeast 0.5% and 2A StopGo -15.4%.
`O=C1ON=C(c2ccccc2)/C1=C\c1ccco1` gave RE007 growth inh 13.9%, NS1 function inh 0.6%, SARS PLpro yeast 0.0% and 2A StopGo -9.2%.
Screening CCOC(=O)c1ccc(N2CN=C3SCC(=O)N3C2)cc1 returned MARV entry inh -7.2%, Lassa entry inh -0.7%, Cruzain noTriton 4.1%, RE007 growth inh -21.1%, NS1 function inh -3.3%, Cruzain Triton -0.2%, SARS PLpro yeast 2.8% and 2A StopGo 16.0%.
Screening CCn1c(SCC(=O)NCc2ccccc2)nc2ccccc2c1=O returned MARV entry inh -23.9%, Lassa entry inh inconclusive, Cruzain noTriton 0.6%, RE007 growth inh -3.1%, NS1 function inh -5.3%, Cruzain Triton 2.5% and SARS PLpro yeast -1.6%.
